Source: PubChem BioAssay (National Center for Advancing Translational Sciences (NCATS))
VDR inhibitor: Inhibitors of the vitamin D receptor (VDR): qHTS; Vitamin D3 receptor (Homo sapiens), P11473; VDR-SRC2-3 peptide fluorescence polarization, 2 h; Potency, µM, for the others: max response, negative = inhibition, actives largely listed as inhibitors; 400,000 tested, 0.93% active; active = well fitted inhibition curve with a large enough effect; inconclusive = small, poorly fitted or top-dose-only effect, or another doubt; inactive = no such curve, though single readings can be large or run the other way; note: series mostly up to about 120 µM
Target sequence (P11473 whole entry, looked up): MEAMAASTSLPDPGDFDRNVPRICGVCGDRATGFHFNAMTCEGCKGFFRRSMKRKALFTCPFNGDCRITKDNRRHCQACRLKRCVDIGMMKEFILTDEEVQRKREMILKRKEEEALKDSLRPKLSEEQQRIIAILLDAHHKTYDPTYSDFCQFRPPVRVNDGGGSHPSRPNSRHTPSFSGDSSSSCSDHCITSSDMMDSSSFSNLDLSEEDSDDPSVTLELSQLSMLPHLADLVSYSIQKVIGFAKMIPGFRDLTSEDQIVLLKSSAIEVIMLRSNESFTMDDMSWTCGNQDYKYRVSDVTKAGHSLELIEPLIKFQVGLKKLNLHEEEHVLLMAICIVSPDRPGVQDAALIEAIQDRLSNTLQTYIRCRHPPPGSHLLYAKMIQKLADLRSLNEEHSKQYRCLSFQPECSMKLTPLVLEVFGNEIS
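Compounds are added to VDR with labelled SRC2-3 coactivator peptide and held 2 h at room temperature. Inhibition of the VDR–peptide interaction is then read as a change in fluorescence polarization.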
* marks the source's active call; other numbers are inactive results; u = inconclusive. % is set by controls: 0 for no effect and ±100 for the full control effect; potency is the fitted concentration of half-maximal effect.

mol,VDR inhibitor
CC(=O)NC1[C@H]([C@H](O)[C@H](O)CO)OC(C(=O)O)=C[C@H]1N=C(N)N (some centres undefined),3%
O=C(Nc1cccc(Br)c1)Nc1nc2c(s1)CCCCCC2,-7%
CC(C)CSc1n[nH]c(N)n1,12%
Cc1ccc(S(=O)(=O)N2CCCCC2)cc1NC(=O)CCN1C(=O)C2CC=CCC2C1=O (centres undefined),15%
Cn1cccc1/C=C1\CC(C(C)(C)C)C/C(=C\c2cccn2C)C1=O (centres undefined),-13%
COc1ccc(CCNC(=O)CN2C(=O)COc3ccc(S(=O)(=O)N4CCOCC4)cc32)c(OC)c1,-4%
Cc1csc(CN(C)C(=O)C2CCC(=O)N(Cc3ccc(Cl)cc3)C2)n1 (centres undefined),10%
COCc1ccc(CN2CCC(Oc3ccc(C(=O)NCc4ccccn4)cc3)CC2)o1,-13%
COc1ccc(-c2nc(SCc3ccccc3)n(C(=O)c3ccco3)n2)cc1,1%
CCOC(=O)c1c(C)[nH]c(C(=O)OCC(=O)NCc2ccc(C)cc2)c1C,9%
COc1cc(NS(=O)(=O)c2ccc(-c3cc(C)no3)cc2)cc(OC)c1,0%
Cc1ccc(C)c(N2CCN(C(=O)CNS(=O)(=O)c3cccs3)CC2)c1,-12%
O=c1c2ccccc2ncn1Cc1ccc2c(c1)OCO2,-7%
C/C=C/c1ccc(OCCSc2nc(C)cc(=O)[nH]2)c(OC)c1,8%
C=C(C)CNC(=S)Nc1nc2c(cc1C(=O)OCC)CCCC2,25%
Cc1cc(C)nc(SCC(=O)N(C)CC(=O)Nc2ccccc2Br)n1,-3%
Cc1ccc(NC(=O)CN(C)S(=O)(=O)c2ccc3c(c2)n(C)c(=O)c(=O)n3C)cc1C,-1%
COc1ccc(C(=O)Nc2ccncc2)cc1[N+](=O)[O-],12%
NC(=O)CSc1cn(CCNC(=O)c2cccs2)c2ccccc12,-10%
CC(=O)c1sc(C(=O)O)c(-c2ccco2)c1-c1ccco1,-23%
C[C@H](CO)N1C[C@H](C)[C@@H](CN(C)S(=O)(=O)c2cn(C)cn2)Oc2ccc(NS(=O)(=O)c3ccccc3)cc2C1=O,4%
CCOCCn1c(=O)c2c(nc3n2CCCN3Cc2ccccc2)n(C)c1=O,7%
O=S(=O)(c1ccc(-c2ccon2)s1)N1CCN(c2ccccn2)CC1,8%
O=C(CCS(=O)(=O)c1ccccc1)Nc1nncs1,-3%
CC(C)(C)OC(=O)C1=C(CO)CS[C@@H]2[C@H](NC(=O)Cc3ccccc3)C(=O)N12,-17%
CN(C)C(=O)c1ccc(-c2nccc(N(C)Cc3ccco3)n2)cc1,u
Clc1cccc(N=C2NN=C(c3ccc4c(c3)OCCO4)CS2)c1,-11%
CC(=O)Nc1ccc(N2CCCC(C)C2)c([N+](=O)[O-])c1 (centres undefined),7%
C[C@H](CO)N1C[C@H](C)[C@H](CN(C)C(=O)Nc2ccc(F)cc2)Oc2c(NC(=O)c3ccc(-c4nccs4)cc3)cccc2C1=O,-17%
COc1cc(OC)cc(-c2nc3nc(C)c(CCC(=O)O)c(C)n3n2)c1,-7%

Random excerpt: six compounds from above, in no set order.
mol,VDR inhibitor
CCOCCn1c(=O)c2c(nc3n2CCCN3Cc2ccccc2)n(C)c1=O,7%
Cc1ccc(NC(=O)CN(C)S(=O)(=O)c2ccc3c(c2)n(C)c(=O)c(=O)n3C)cc1C,-1%
CC(=O)Nc1ccc(N2CCCC(C)C2)c([N+](=O)[O-])c1 (centres undefined),7%
NC(=O)CSc1cn(CCNC(=O)c2cccs2)c2ccccc12,-10%
COc1ccc(C(=O)Nc2ccncc2)cc1[N+](=O)[O-],12%
O=S(=O)(c1ccc(-c2ccon2)s1)N1CCN(c2ccccn2)CC1,8%

Following part.
mol,VDR inhibitor
C/C(=N\NC(=O)c1nnn(-c2nonc2N)c1-c1cccs1)c1ccc(C)cc1,-8%
O=C(Nc1ccsc1C(=O)N1CCCCCC1)c1ccccc1,3%
CCN(c1ccccc1)S(=O)(=O)c1ccc(NN)nc1,-16%
CCOc1ccccc1NC(=O)CCS(=O)(=O)c1ccc(Br)cc1,-12%
CN1CCN(S(=O)(=O)Cc2ccccc2Cl)CC1,-1%
O=C(NC1CC1)c1sc2ccccc2c1Cl,-17%
CC(=O)N1CCN(C(=O)CCC(=O)O)CC1,-4%
C=CCNC(=O)c1ccccc1NC(=O)c1ccc(Cl)c(S(=O)(=O)Nc2cccc(C)c2C)c1,7%
COc1ccccc1NC(=O)Nc1ccc(Cc2ccncc2)cc1,4%
CCCCN(C)CCCNC(=O)CS(=O)Cc1nc(-c2ccc(OC)c(OC)c2)oc1C (centres undefined),-1%
COc1cc(C(=O)Nc2ccc(O)cc2C(=O)O)ccc1OC(C)=O,3%
O=C(COC(=O)COc1cc(Cl)c(Cl)cc1Cl)NC1CC1,-13%
O=S(=O)(CCc1ccncc1)C1Cc2cccc3cccc1c23 (centres undefined),8%
Cc1cc(NC(=O)CCC(=O)N(c2ccccc2)C(C(=O)NC2CCCC2)c2ccccc2C)no1 (centres undefined),-3%
COc1ccc(/C=N/Nc2ccc([N+](=O)[O-])cc2S(=O)(=O)N2CCN(C)CC2)cc1,5%
CCC(=O)Nc1ccc(S(=O)(=O)N2CCc3ccccc3C2)cc1,-8%
FC(F)(F)c1nc2ccccc2n2c(-c3ccc(Cl)cc3Cl)nnc12,11%
O=C(CS(=O)(=O)c1cn(Cc2cccc(F)c2)c2ccccc12)N1CCCCC1,5%
C/C(=N\N1CCN(C)CC1)c1ccc(OC(F)F)cc1,-5%
NC(=O)Cc1c[nH]c2cccc(O)c12,27%
COC(CNC(=O)CCc1c(C)nc2c(-c3ccc(F)cc3)c(C)nn2c1C)OC,-17%
COc1ccc(C(=O)NNC(=O)c2ccncc2)cc1[N+](=O)[O-],-1%
CCCCSCCCNC(=O)Nc1ccc(C)c(C)c1,-4%
Cc1ccc(NC(=O)CN(C)C(=O)c2ccccn2)cc1,6%
Cc1ccc(/C=C/C(=O)NCc2cccs2)c(C)c1,4%
NC(=S)NN=Cc1ccc(-c2ccc(S(=O)(=O)Nc3ncccn3)cc2)o1,-16%
COc1ccc(C2=NO[C@H]3C[C@](C(=O)NC(C)C)(S(=O)(=O)c4ccccc4)C[C@@H]23)cc1,1%
COc1ccc(C(=O)N/C(=C\c2ccco2)C(=O)OCc2ccco2)cc1,3%
CCCCn1c(Cn2nc(C(=O)O)c3ccccc3c2=O)nc2cc(S(N)(=O)=O)ccc21,-9%
COc1ccc(N(CC(=O)Nc2cccc(SC)c2)S(C)(=O)=O)cc1,-1%
Cc1ccc(C)n1-c1ccc(C(=O)NN)cc1,u
CCc1ccccc1NC(=O)CCN1C(=O)C2CC=CCC2C1=O (centres undefined),9%
Cc1cc(C)cc(-n2c(C)cc(/C=N/NC(=O)c3ccncc3)c2C)c1,-2%
O=C(c1cc(Cl)ccc1Cl)N1CCN(Cc2ccccc2)CC1,-3%
Cc1ccc(C(=O)Nc2ccc(CC(=O)O)cc2)o1,2%
O=C(O)Cc1ccc(NC(=O)c2cnccn2)cc1,-11%
COc1cccc(CNC(=O)Cn2nc3c(cc2=O)CCCC3)c1OC,9%
CC(=O)NCCc1ccc(S(=O)(=O)Nc2ccc3c(c2)OCCO3)cc1,-13%
CCOC(=O)N1CCN(CC(O)COCC2=CCC3CC2C3(C)C)CC1 (centres undefined),-6%
CCOc1ccc(-n2c(Cc3ccccc3)nnc2SCc2nc(-c3ccccc3OC)no2)cc1,4%
O=C(O)c1ccc(-n2cccn2)c([N+](=O)[O-])c1,2%
Cc1cc(C(=O)CCC(=O)N2CCN(c3ccccc3F)CC2)c(C)s1,-15%
Cc1ccc(S(=O)(=O)/N=C(/Nc2cccc(C(=O)O)c2)c2ccccc2)cc1,4%
COCCNC(=O)c1ccc(CS(=O)(=O)c2ccccc2C)o1,-9%
O=C(c1cc(-c2ccc(Cl)cc2)nc2ccccc12)N1CCC1,-3%

The list continues:
compound | VDR inhibitor
OC(COCc1ccc(Cl)cc1)CN1CCCCC1 (centres undefined) | 3%
CC1(C)Cc2c(C#N)c(SCC(=O)O)nc(N3CCOCC3)c2CO1 | 2%
Cc1ccn2c(NCc3ccccc3)c(-c3cccs3)nc2c1 | 2%
CCCNC(=O)CN1CCC(c2nc3ccccc3[nH]2)CC1 | -5%
CC1(C)COC2(OC1)C(=O)N(CN1CCOCC1)c1ccccc12 | 1%
CCCCC(=O)Nc1ccc(C(=O)Nc2cccnc2)cc1 | 1%
O=C(NCc1ccncc1)C(=O)NCC1OCCN1S(=O)(=O)c1ccc(Cl)cc1 (centres undefined) | -7%
N#CCCCC1(CCCC#N)OCCO1 | -25%
O=C(O)COc1ccc2occ(C(=O)c3ccccc3)c2c1 | 1%
CC(NCc1cccs1)c1ccccc1 (centres undefined) | 5%
CCC1=C(c2ccc(C)cc2)S(=O)(=O)N=C1N1CCC(C(=O)Nc2ccccc2F)CC1 | 5%
Cc1cccc(N2CCN(C(=O)c3cc4c(=O)[nH]c5ccccc5c4n3C)CC2)c1C | 0%
COCCNC(=O)c1ccccc1NC(=O)c1ccccc1N(C)S(C)(=O)=O | 4%
O=C(CN1CCOCC1)Nc1ccc(Cl)cc1 | 5%
COc1cc(OC)c(C2SCCCS2)cc1OC | -5%
Cc1ccc(S(=O)(=O)Nc2cccc3ncccc23)cc1 | -23%
O=C(N/N=C/c1ccccc1F)c1csc2c1CCCC2 | -9%
CC1(C)N=C2C(=[N+]1[O-])CCC/C2=N\O | -6%
N#CCOC(=O)c1cc(S(=O)(=O)N2CCCCC2)ccc1N1CCOCC1 | 2%
O=C(Nc1ccccc1)Nc1ccc2c(c1)CCC2 | -5%
COc1ccc(C(=O)NCC(=O)OCC(=O)NC2CCCC2)cc1 | 7%
CCn1c(C(O)c2cc(OC)ccc2OC)nc2ccccc21 (centres undefined) | 3%
CC1=CCC2C(=O)N(c3ccc(S(N)(=O)=O)cc3)C(=O)C2C1 (centres undefined) | -11%
O=C(CN1CCN(Cc2cccc(Cl)c2)C1=O)NCc1ccccn1 | -9%
COc1ccccc1Nc1ccc2c(O)cc(S(=O)(=O)O)cc2c1 | u
O=[N+]([O-])c1ccccc1S(=O)(=O)N1CCN(c2ccccc2)CC1 | -11%
CC(Cl)C(=O)c1c[nH]c2ccccc12 (centres undefined) | -13%
CCOc1cc(C(c2c(C)[nH][nH]c2=O)c2c(C)[nH][nH]c2=O)cc(Br)c1OC | -17%
O=C(Cn1[nH]c(=O)c2ccccc2c1=O)Nc1ccc2c(c1)CCC2 | 9%
CCOC(=O)C1(CCCc2ccccc2)CCN(C(=O)CCN2CCCCC2=O)CC1 | -4%
CN(c1ccc(OCC(=O)OCC(=O)Nc2ccccc2)cc1)S(=O)(=O)c1ccc(F)cc1 | 18%
Cn1c(=O)c2[nH]c(N=Nc3ccc(N)cc3N)nc2n(C)c1=O | -4%
CCOC(=O)C1CCN(C(=O)Cn2ncc3c4ccccc4n(Cc4ccccc4F)c3c2=O)CC1 | -2%
CCNc1ncc2nc(CCc3ccccc3)c(=O)n(CCC#N)c2n1 | u
NC(=O)C1(NC(=O)[C@@H]2CC3(CC(c4cccc(NC(=O)[C@@H]5CCC(=O)N5)c4)=NO3)CN2C(=O)c2cnccn2)CC1 (some centres undefined) | 1%
c1coc(CNc2c3c(nc4ncnn24)CCCC3)c1 | -7%
CCCC(NC(=O)CNC(=O)C(C)(C)C)C(=O)O (centres undefined) | 25%
Cc1ccc2c(c1)C(c1ccccc1)N(C(=O)c1ccc(F)cc1)CC(=O)N2 (centres undefined) | 14%
COc1ccc(CNC(=O)Cc2csc3ccccc23)cc1OC | 11%
COc1ccccc1/C=C/C=N/Nc1cccc(C(=O)O)c1 | -16%
Cc1ccc(CN2C(=O)CN(C3CCCCCC3)C(=O)C2c2ccc(F)cc2)cc1 (centres undefined) | 4%
COC(=O)Cc1c(C)nc2nc(-c3ccc(OC)cc3)[nH]n2c1=O | -10%
CC(C)=CC(=O)OCC(=O)Nc1ccc(F)cc1Cl | -11%
COc1ccc(NC(=O)CCS(=O)(=O)c2cc(Br)cc3c2N(C(C)=O)CC3)c(OC)c1 | 1%
COc1ccccc1CNC(=O)CSc1ncc2c(n1)-c1ccccc1N(Cc1ccc(C)cc1)S2(=O)=O | -16%
O=C(CN=C1NS(=O)(=O)c2ccccc21)OCC(=O)c1cc(F)ccc1F | -7%
COCCn1c(SCC(=O)Nc2sccc2C(N)=O)nnc1-c1ccncc1 | 5%
Cc1ccc(/C=C2\SC(=S)N(CCCC(=O)Nc3nccs3)C2=O)cc1 | -9%
O=C(O)C1CCN(c2ccc([N+](=O)[O-])cc2[N+](=O)[O-])CC1 | 0%
C=CCNC(=S)N/N=C/c1ccc(C)c([N+](=O)[O-])c1 | -13%
COCCn1c(C)cc(C(=O)CSc2nnc3ccccn23)c1C | 1%

Molecules shown so far containing a nitro group on carbon, in the order listed:
compound | VDR inhibitor
COc1ccc(C(=O)Nc2ccncc2)cc1[N+](=O)[O-] | 12%
CC(=O)Nc1ccc(N2CCCC(C)C2)c([N+](=O)[O-])c1 (centres undefined) | 7%
COc1ccc(/C=N/Nc2ccc([N+](=O)[O-])cc2S(=O)(=O)N2CCN(C)CC2)cc1 | 5%
COc1ccc(C(=O)NNC(=O)c2ccncc2)cc1[N+](=O)[O-] | -1%
O=C(O)c1ccc(-n2cccn2)c([N+](=O)[O-])c1 | 2%
O=[N+]([O-])c1ccccc1S(=O)(=O)N1CCN(c2ccccc2)CC1 | -11%
O=C(O)C1CCN(c2ccc([N+](=O)[O-])cc2[N+](=O)[O-])CC1 | 0%
C=CCNC(=S)N/N=C/c1ccc(C)c([N+](=O)[O-])c1 | -13%

This is a subset (hit frequency here may not be typical).
